Bioassay records deposited in PubChem BioAssay by National Center for Advancing Translational Sciences (NCATS).
2A StopGo – lowers the luciferase signal of an FMDV 2A StopGo reporter; 410,000 tested, 1.2% active; AID 1159524; human cells with a luciferase reporter of 2A StopGo recoding; control for the full effect not named in the record; Potency, µM (titrated, usually from 57.9 µM), inactives show top-dose signal change, negative = less light; active = well fitted falling curve with a large enough effect; inconclusive = small, poorly fitted or top-dose-only effect; inactive = no such curve, though single readings can be large or run the other way; tested in HEK293T cells; also: % is scaled to controls: 0 for no effect and ±100 for the full control effect; nearly all actives have a fitted effect of over 45% in size; luciferase light after 4 h
Cruzain noTriton – cruzain (T. cruzi) inhibition without detergent; P25779; purified cruzain, Z-FR-AMC fluorescence, no detergent; Potency, µM, inactives show max response, negative = inhibition, actives largely listed as inhibitors; 200,000 tested, 2.3% active; AID 1476;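 also: plate controls were enzyme without inhibitor for no effect and buffer without enzyme for full effect; nearly all actives have a fitted effect of over 40% in size; top concentration of the series not given in the record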
Target sequence (P25779 123-467 limits assumed): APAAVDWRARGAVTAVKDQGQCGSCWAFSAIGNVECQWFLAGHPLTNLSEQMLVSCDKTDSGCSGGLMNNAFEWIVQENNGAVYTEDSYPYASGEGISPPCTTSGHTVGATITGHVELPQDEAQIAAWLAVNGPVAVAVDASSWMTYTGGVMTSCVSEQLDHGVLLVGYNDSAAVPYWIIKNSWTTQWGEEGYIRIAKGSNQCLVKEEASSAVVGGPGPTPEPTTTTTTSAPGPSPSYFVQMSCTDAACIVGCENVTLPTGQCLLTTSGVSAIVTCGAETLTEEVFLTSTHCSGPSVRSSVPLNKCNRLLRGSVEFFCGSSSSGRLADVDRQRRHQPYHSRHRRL
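Purified cruzain at 1.5 nM, pre-incubated 15 min with compound at room temperature in 100 mM sodium acetate pH 5.5, 5 mM DTT, 0.00005% Triton X-100. Reaction started with 2 uM Z-FR-AMC; AMC fluorescence increase over 60 s gives rate.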
MARV entry inh – inhibitors of Marburg virus binding or cell entry; AID 540276; Marburg virus pseudotyped entry inhibition, cell reporter; control for the full effect not named in the record; about a third of the inactives were read at about 46 µM; 300,000 tested, 1.8% active; Potency, µM (series often up to 37.8 µM), without a hit: at the highest dose activity change, negative = inhibition, hits mostly inhibitors; active = well fitted inhibition curve with a large enough effect; inconclusive = small, poorly fitted or top-dose-only effect, or effect the other way; inactive = flat fitted curve, though single readings scatter; tested in HEK293 cells; about a fifth of its hits are not listed in these tables; also: % is scaled to controls: 0 for no effect and ±100 for the full control effect; luciferase read-out
LASV entry inh – Lassa virus entry inhibition. 300,000 tested, 1.2% active. Lassa virus pseudotype entry inhibition, cell reporter; control for the full effect not named in the record. Potency, µM (doses to about 37.9 µM), inactives show at the top dose activity change, negative = inhibition, actives largely listed as inhibitors; active means well fitted inhibition curve with a large enough effect; inconclusive means small, poorly fitted or top-dose-only effect, or effect the other way; inactive means flat fitted curve, though single readings scatter; tested in HEK293 cells; also: % is scaled to controls: 0 for no effect and ±100 for the full control effect; nearly all actives have a fitted effect of over 50% in size; luciferase read-out
Cruzain inh Det – inhibitors of Trypanosoma cruzi cruzain with detergent; Potency, µM, without a hit: max response, negative = inhibition, actives largely listed as inhibitors; 200,000 tested, 0.43% active; purified cruzain, Z-FR-AMC fluorescence, 0.01% Triton; P25779; AID 1478;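 also: plate controls were neutral wells for no effect and buffer without enzyme for full effect; nearly all actives have a fitted effect of over 40% in size; top concentration of the series not given in the record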
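Steps: dispense cruzain (1.5 nM final) in acetate buffer pH 5.5 with DTT and 0.01% Triton X-100; pin-transfer compounds; incubate 15 min RT; add Z-FR-AMC (2 uM final); read fluorescence every 30 s, using the 60 s intensity change.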
NS1 inh – inhibitors of influenza NS1 protein function. Potency, µM (series often up to 46.1 µM), for inactives: top-dose activity, positive = more growth. 270,000 tested, 0.4% active. S. cerevisiae slowed by influenza A NS1, growth recovery by OD600; active means well fitted rising curve with a large enough effect; inconclusive means small, poorly fitted or top-dose-only effect; inactive means no such curve, though single readings can be large or run the other way; also: nearly all actives have a fitted effect of over 50% in size
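In this qHTS, NS1 from influenza A is expressed in budding yeast, where it slows growth. Cells are switched from glucose to 2% galactose medium (pH 6.0, -URA), treated with compound, and growth recovery is read at OD600.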
SARS PLpro yeast – inhibitors of SARS-CoV papain-like protease in yeast. Potency, µM (series often up to 32.9 µM), for inactives: at the top dose activity, positive = growth rescue. S. cerevisiae expressing SARS-CoV PLpro, growth rescue; control for the full effect not named in the record. 330,000 tested, 0.19% active; active means well fitted rising curve with a large enough effect; inconclusive means small, poorly fitted or top-dose-only effect; inactive means no such curve, though single readings can be large or run the other way; also: 0% is about no effect; nearly all actives have a fitted effect of over 55% in size; growth read by luminescence after 48 h
RE007 growth inh – less growth of the S. pombe RE007 Vpr strain; S. pombe RE007 Vpr strain, BacTiter-Glo ATP luminescence, 24 h; control for the full effect not named in the record; Potency, µM (top dose mostly 92.2 µM), for inactives: top-dose activity change, negative = less growth; 360,000 tested, 0.21% active; AID 651644; active = well fitted falling curve with a large enough effect; inconclusive = small, poorly fitted or top-dose-only effect; inactive = no such curve, though single readings can be large or run the other way;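 also: % is scaled to controls: 0 for no effect and ±100 for the full control effect; nearly all actives have a fitted effect of over 50% in size; the assay follows cell death caused by Vpr and the record does not say whether a fall means rescue or toxicity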
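Fission yeast strain RE007, carrying one chromosomally integrated HIV-1 vpr copy, was seeded at OD 0.01 in PMG+AL medium with 23 nL pinned compound. After 24 h at 30 °C and 99% humidity, viability was read by BacTiter-Glo luminescence.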
Active calls of the source: *; u = inconclusive; x = not tested or not shown; & = joins results of further samples; [ ] = dose if it differs, or a comment. Unless noted, calls follow the shape of the dose curve; as a rule, active = well fitted curve in the direction sought with a large enough effect; inconclusive = small, poorly fitted or top-dose-only effect, or another doubt; inactive = no such curve, though single readings can be large; an effect the other way counts as inactive or inconclusive. Potency is read from the fitted curve at half-maximal effect.

Screens by letter – A = 2A StopGo; B = Cruzain noTriton; C = MARV entry inh; D = LASV entry inh; E = Cruzain inh Det; F = NS1 inh; G = SARS PLpro yeast; H = RE007 growth inh
COc1ccc(CNC(=O)CSc2ncc(S(=O)(=O)c3ccc(Br)cc3)c(=O)[nH]2)cc1
  A: 3%; B: u; C: -24%[46.1 µM]; D: 21%[46.1 µM]; E: -8.5%; F: x; G: x; H: x

Cc1nc(-c2ccc(S(=O)(=O)N3CCN(c4ccc(F)cc4)CC3)cc2)co1
  A: u; B: 25%; C: x; D: -22%[46.1 µM]; E: -7.6%; F: x; G: x; H: x

Cn1c(=O)c2[nH]c(Cc3cccc(O)c3)nc2n(C)c1=O
  A: -9%; B: x; C: 6%[46.1 µM]; D: 17%[46.1 µM]; E: x; F: x; G: x; H: 9%

CCN(CC)CCNC(=O)c1ccc(NC(=O)c2ccc(Cl)c(S(=O)(=O)Nc3ccccc3OC)c2)cc1
  A: x; B: 5%; C: 3%; D: x; E: 5.5%; F: 18%; G: -1%; H: x

O=C(O)CC(NC(=O)Cc1ccccc1)c1ccccc1 (stereo not drawn)
  A: 13%; B: x; C: x; D: x; E: x; F: -5%; G: -2%; H: -18%

CN(C(=O)COC(=O)c1ccc(S(=O)(=O)N2CCOCC2)cc1)c1ccccc1
  A: -16%; B: x; C: -4%; D: -4%; E: x; F: x; G: 1%; H: -3%

O=C(O)CSCC(=O)N1N=C2/C(=C/c3ccccc3)CCCC2C1c1ccccc1 (stereo not drawn)
  A: -19%; B: x; C: -13%[46.1 µM]; D: -3%; E: x; F: 30%; G: 2%; H: 3%

O=C(CSc1nc2ccccc2c(=O)[nH]1)Nc1cccc([N+](=O)[O-])c1
  A: -6%; B: x; C: 7%; D: 2%; E: x; F: 9%; G: -4%; H: 7%

CCCCc1nn2c(=O)cc(COC(=O)c3ccco3)nc2s1
  A: 20%; B: -8%; C: x; D: 6%[46.1 µM]; E: -3.0%; F: x; G: x; H: x

O=C(COC(=O)C1(c2ccccc2)CC1)N1CCN(c2ccc(F)cc2)CC1
  A: -2%; B: 2%; C: -25%[46.1 µM]; D: 7%; E: -4.7%; F: -6%; G: -2%; H: 5%

CCOC(=O)N1CCN(S(=O)(=O)c2ccc(C(=O)N(CCN(C)C)c3nc4c(C)cccc4s3)cc2)CC1
  A: -8%; B: x; C: -12%; D: 0%; E: x; F: -5%; G: -2%; H: -21%

CCn1c(Cc2cccs2)nnc1SCC(=O)NC(C)(C)C
  A: 2%; B: x; C: 1%[46.1 µM]; D: 13%; E: x; F: 4%; G: 1%; H: -11%

CCOC(=O)c1ccc(-n2nc(C)cc2C)cc1
  A: 25%; B: x; C: x; D: x; E: x; F: -4%; G: 1%; H: -13%

O=C(NCc1ccncc1)c1ccc(Oc2ccccc2)cc1
  A: -15%; B: x; C: 13%[46.1 µM]; D: -17%; E: x; F: x; G: 1%; H: -4%

CC1CCC(Nc2ncnc3onc(-c4ccc(F)cc4)c23)CC1 (stereo not drawn)
  A: -16%; B: -2%; C: x; D: 3%[46.1 µM]; E: -2.6%; F: x; G: x; H: x

5 entries from above, with values under each structure:
Values run as follows: 2A StopGo, Cruzain noTriton, MARV entry inh, LASV entry inh, Cruzain inh Det, NS1 inh, SARS PLpro yeast, RE007 growth inh
> Cn1c(=O)c2[nH]c(Cc3cccc(O)c3)nc2n(C)c1=O
  -9%, x, 6%[46.1 µM], 17%[46.1 µM], x, x, x, 9%
> CCN(CC)CCNC(=O)c1ccc(NC(=O)c2ccc(Cl)c(S(=O)(=O)Nc3ccccc3OC)c2)cc1
  x, 5%, 3%, x, 5.5%, 18%, -1%, x
> O=C(O)CC(NC(=O)Cc1ccccc1)c1ccccc1 (stereo not drawn)
  13%, x, x, x, x, -5%, -2%, -18%
> CN(C(=O)COC(=O)c1ccc(S(=O)(=O)N2CCOCC2)cc1)c1ccccc1
  -16%, x, -4%, -4%, x, x, 1%, -3%
> O=C(O)CSCC(=O)N1N=C2/C(=C/c3ccccc3)CCCC2C1c1ccccc1 (stereo not drawn)
  -19%, x, -13%[46.1 µM], -3%, x, 30%, 2%, 3%

New compounds follow:
Screens by letter – A = 2A StopGo; B = Cruzain noTriton; C = MARV entry inh; D = LASV entry inh; E = Cruzain inh Det; F = NS1 inh; G = SARS PLpro yeast; H = RE007 growth inh
CCN(CC)S(=O)(=O)c1ccc(OC)c(NC(=O)CSCc2c(C)noc2C)c1
  A: -7%; B: x; C: -21%[46.1 µM]; D: -13%[46.1 µM]; E: x; F: x; G: 29%; H: -10%

COC1CCN(C(=O)c2ccc3oc(Cc4ccc(Cl)cc4)nc3c2)CC1
  A: 7%; B: x; C: x; D: x; E: x; F: -14%; G: 0%; H: 6%

O=C(OCC(=O)N1CCOCC1)c1ccccc1OCc1ccc(Cl)cc1
  A: 6%; B: x; C: 4%[46.1 µM]; D: -7%[46.1 µM]; E: x; F: x; G: 10%; H: -2%

CC(OC(=O)Cc1coc2ccc3ccccc3c12)C(=O)Nc1ncc(Cl)cc1Cl (stereo not drawn)
  A: u; B: -22%; C: -1%; D: -6%; E: -7.0%; F: -1%; G: -1%; H: -4%

CCOC(=O)C1=C(COC(=O)CCS(=O)(=O)c2ccc(C)cc2)NC(=O)NC1C (stereo not drawn)
  A: -4%; B: x; C: 13%; D: -22%; E: x; F: x; G: 3%; H: 7%

C#Cc1cccc(NC(=O)C2CCN(C(C)=O)CC2)c1
  A: 8%; B: x; C: 1%[46.1 µM]; D: 19%[46.1 µM]; E: x; F: 3%; G: 1%; H: -2%

CC(C)c1nc2cc(C(=O)N3CCNC(=O)C3c3ccc(F)cc3)ccc2o1 (stereo not drawn)
  A: u; B: x; C: x; D: x; E: x; F: -5%; G: -1%; H: -1%

COc1cccc(C(=O)NC(=S)Nc2ccc([N+](=O)[O-])cc2C)c1
  A: 8%; B: 11%; C: u; D: -3%; E: -5.5%; F: 26%; G: 3%; H: 5%

O=C(NCc1cccs1)C1CCN(c2nc3ccccc3o2)CC1
  A: -23%; B: -2%; C: 2%; D: x; E: 1.3%; F: -2%; G: -4%; H: 15%

CC(=O)N(CCS(=O)(=O)c1ccc(Cl)cc1)Cc1cccs1
  A: -26%; B: x; C: x; D: x; E: x; F: -1%; G: 0%; H: -16%

CN(Cc1ccccc1)C(=O)COc1ccc(C(C)(C)C)cc1
  A: 50%[activator]; B: x; C: x; D: x; E: x; F: 2%; G: 1%; H: 0%

CC(=O)Nc1ccc(/C=C/c2nc(-c3ccccc3O)n(-c3ccccc3)n2)cc1
  A: 0%; B: u; C: 5%[46.1 µM]; D: u; E: -13%; F: x; G: x; H: x

O=C(Nc1cccc(S(=O)(=O)N2CCOCC2)c1)c1cnn2c(C(F)F)cc(-c3ccccc3)nc12
  A: -10%; B: x; C: 14%[46.1 µM]; D: 14%; E: x; F: -3%; G: 1%; H: -1%

COc1ccc(OC)c(NC(=O)CSC2=Nc3ccccc3C3=NC(CCC(=O)NCCc4ccccc4)C(=O)N23)c1 (stereo not drawn)
  A: u; B: u; C: x; D: -7%[46.1 µM]; E: 1.2%; F: x; G: x; H: x

CN(Cc1nc(-c2cnccn2)no1)Cc1n[nH]c2c1CCCC2
  A: -6%; B: x; C: 0%[46.1 µM]; D: x; E: x; F: -2%; G: 1%; H: 1%

Next section.
SMILES	2A StopGo	Cruzain noTriton	MARV entry inh	LASV entry inh	Cruzain inh Det	NS1 inh	SARS PLpro yeast	RE007 growth inh
CCCN(CCC)c1c([N+](=O)[O-])c(=O)oc2ccccc12	-10%	-11%	22%	-9%	-3.5%	14%	29%	-1%
O=C(O)C1CCCCC1C(=O)Nc1cnn(Cc2ccccc2)c1 (stereo not drawn)	-1%	-8%	4%	12%	3.3%	11%	2%	-2%
CC(=O)c1cccc2c(O)c(C3=Nc4ccccc4C3=O)[nH]c12	-2%	-6%	-10%	u	-13%	-36%	-65%	u
CCOC(=O)N1CCN(c2c(NCCc3ccc(C)cc3)c(=O)c2=O)CC1	-11%	x	x	x	x	-5%	1%	1%
CC(C)(Cl)C1Cc2cc3ccc(=O)oc3cc2O1 (stereo not drawn)	x	1%	15%	18%	-7.8%	-4%	3%	-5%
N#CC1=C(Nc2ccccc2)SC=C(c2ccc(F)cc2)N=C1N1CCOCC1	x	7%	-3%	x	-8.3%	1%	-5%	x
COc1ccc(C(NC(=O)c2cccc(F)c2)c2ccccc2)cc1 (stereo not drawn)	-30%	-4%	2%	-13%	-2.7%	14%	16%	-1%
CCOc1ccc(S(=O)(=O)NCC2CCCO2)c2ccccc12 (stereo not drawn)	85%[activator]	x	28%&28%	3%	x	-20%	-9%	-9%
COC(=O)c1sc(NC(=O)CSc2nnc(Cn3nnc4ccccc43)n2C)nc1C	-19%	-3%	-21%	8%	-0.6%	15%	29%	25%
Cc1oc2ccc(O)cc2c1C(=O)OC(C)C	x	-4%	12%	16%	-8.3%	0%	-18%	1%
Cc1ccc(C(=O)NCc2ccc3c(c2)OCO3)o1	20%	x	1%[46.1 µM]	22%[46.1 µM]	x	-2%	1%	7%
O=C(NCc1cn2ccsc2n1)Nc1cccc(Cl)c1	63%[activator]	2%	21%	u	-3.0%	-7%	4%	-17%
COc1ccccc1CC(=O)Nc1ccc(-c2noc(COc3cccc(C)c3C)n2)cc1	-19%	2%	-2%	x	1.3%	9%	0%	10%
O=C(Nc1ccc2oc(-c3cccnc3)nc2c1)c1ccco1	23%	-3%	15%	u	-4.0%	-75%	-9%	0%
Cc1ccc(OCC(=O)NCc2cccnc2)cc1	4%	x	29%[46.1 µM]	21%	x	4%	1%	16%
COc1cc(NS(=O)(=O)c2ccc(NC(=O)COc3ccccc3C)cc2)nc(OC)n1	x	u	17%	8%	u	0%	-4%	0%
FC(F)(F)c1cc(-c2ccc(Cl)cc2)nc(NCc2cccnc2)n1	u	-3%	-21%	-26%	-9.5%	-19%	-8%	2%
CN(C)S(=O)(=O)c1ccc(N2CCCC2)c(C(=O)Nc2ccc(N3CCOCC3)cc2)c1	17%	11%	u	-5%	-2.2%	3%	6%	-3%
